Screening data as filed in PubChem.
NPYLR7 ag – mosquito NPYLR7 agonism. activation, % at 10 µM. 270,000 tested, 0.15% active. HEK293T NPYLR7/Galpha15, GCaMP6s calcium fluorescence; in the data active means activation above about 40%;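 further: 0% = vehicle and 100% = reference agonist at the receptor; some compounds past the cut are filed as inactive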
NPYLR7 ag max-min – second read-out of NPYLR7 ag, no call of its own (marks repeat the call); activation, %; measured here: Max-Min RFU normalised activation; some inactives read as strong as hits;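 span of the calcium signal over five minutes; 0% = vehicle and 100% = native peptide agonist; compound fluorescence can raise it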
An asterisk follows results filed as active; & = joins results of further samples. A portion of the library; count on the stated rates, not on these rows.

CC1(Cc2cccc(C#N)c2)C(=O)Nc2cc(OC(F)(F)F)ccc21 (stereo unspecified)
- NPYLR7 ag: 1
- NPYLR7 ag max-min: 5
CCCNC(=O)c1cc(NC(=O)Nc2ccc(C(F)(F)F)cc2)ccc1N1CCCCC1
- NPYLR7 ag: 1
- NPYLR7 ag max-min: 12
CC1=NN(c2ccc(S(N)(=O)=O)cc2)C(=O)/C1=C\c1ccc(N(C)C)cc1
- NPYLR7 ag: -7
- NPYLR7 ag max-min: -15
O=c1c(N=Nc2ccc(I)cc2)c(-c2ccccc2)[nH]n1-c1nc(-c2ccccc2)cs1
- NPYLR7 ag: 11
- NPYLR7 ag max-min: 23
NC1(c2noc(C3CCOC3)n2)CCCCCC1 (stereo unspecified)
- NPYLR7 ag: -1
- NPYLR7 ag max-min: -1
CC1CCCN(C(c2ccccc2)C2Sc3ncnn3C2=O)C1 (stereo unspecified)
- NPYLR7 ag: 4
- NPYLR7 ag max-min: 3
O=C(O)c1cc(N2C[C@@H]3[C@H](C2)[C@H]2CC[C@@H]3O2)nc2ccccc12
- NPYLR7 ag: 6
- NPYLR7 ag max-min: 2
CN1CCN(c2ccc(NC(=O)NC3CCCCC3)cc2)CC1
- NPYLR7 ag: -18
- NPYLR7 ag max-min: -23
CN(CCc1ccccc1)C(=O)c1ccc(-c2ccc(F)c(F)c2)s1
- NPYLR7 ag: 2
- NPYLR7 ag max-min: -2
CCOC(C)C(=O)Nc1sccc1S(C)(=O)=O (stereo unspecified)
- NPYLR7 ag: 1
- NPYLR7 ag max-min: -1
CCCCC(CC)C(=O)Nc1c(-c2cccc(F)c2)nc2ccccn12 (stereo unspecified)
- NPYLR7 ag: -3
- NPYLR7 ag max-min: 3
Cc1cccc(C)c1OCCCN(C)C(=O)CN1CCOC1=O
- NPYLR7 ag: 14
- NPYLR7 ag max-min: 1
CCOC(=O)N1CCN(C(c2ccc(OC)c(OC)c2)c2c(O)cc(C)n(CCOC)c2=O)CC1 (stereo unspecified)
- NPYLR7 ag: 9
- NPYLR7 ag max-min: 3
Cc1ccccc1C(=O)Nc1c(C)nc2sc(C)c(C)n2c1=O
- NPYLR7 ag: 10
- NPYLR7 ag max-min: 4
COc1cccc(CN2CCN(Cc3nc(NCc4ccc(C)o4)c4ccccc4n3)CC2=O)c1
- NPYLR7 ag: 29
- NPYLR7 ag max-min: 22

6 entries from above in a different format.
Sequence of screens – NPYLR7 ag	NPYLR7 ag max-min
CC1=NN(c2ccc(S(N)(=O)=O)cc2)C(=O)/C1=C\c1ccc(N(C)C)cc1
→ -7	-15
O=c1c(N=Nc2ccc(I)cc2)c(-c2ccccc2)[nH]n1-c1nc(-c2ccccc2)cs1
→ 11	23
NC1(c2noc(C3CCOC3)n2)CCCCCC1 (stereo unspecified)
→ -1	-1
CC1CCCN(C(c2ccccc2)C2Sc3ncnn3C2=O)C1 (stereo unspecified)
→ 4	3
O=C(O)c1cc(N2C[C@@H]3[C@H](C2)[C@H]2CC[C@@H]3O2)nc2ccccc12
→ 6	2
CN1CCN(c2ccc(NC(=O)NC3CCCCC3)cc2)CC1
→ -18	-23

(more compounds)
Cc1ccc(NC(=O)N(CCN2CCOCC2)Cc2csc(COc3cccc(C)c3)n2)cc1
- NPYLR7 ag: 12
- NPYLR7 ag max-min: 8
Cn1c(NC(=O)c2ccccc2)c(-c2cccs2)c(=O)c2ccccc21
- NPYLR7 ag: 1
- NPYLR7 ag max-min: -1
CCOC(=O)CNC(=O)Cn1c(=O)n(-c2ccc(F)cc2)c(=O)c2oc3ccccc3c21
- NPYLR7 ag: -4
- NPYLR7 ag max-min: -8
CC(NC(=O)C#Cc1ccccc1)C(C)(C)C (stereo unspecified)
- NPYLR7 ag: -1
- NPYLR7 ag max-min: -2
Nc1ccc2oc(CCc3ccccc3)nc2c1
- NPYLR7 ag: -3
- NPYLR7 ag max-min: -4
Cc1cc(C)n(-c2nc(-c3ccccc3)nc3c2COC(C)(C)C3)n1
- NPYLR7 ag: -11
- NPYLR7 ag max-min: -15
COc1ccc(NC(=O)c2ccc3nc(C)c(N(C)Cc4ccc(NC(C)=O)cc4)n3c2)cc1OC
- NPYLR7 ag: 14
- NPYLR7 ag max-min: 3
O=c1[nH]c(Cc2c[nH]c3ncccc23)nc2cc(F)c(F)cc12
- NPYLR7 ag: 2
- NPYLR7 ag max-min: 1
COc1ccc(-n2c(-c3ccccc3)cc(C(=O)N3CC(C)OC(C)C3)c2C)c(OC)c1 (stereo unspecified)
- NPYLR7 ag: -12
- NPYLR7 ag max-min: -16
CC(C)(C)NC(=O)CN1CCCN(S(=O)(=O)c2cc(Cl)cc(Cl)c2)CC1
- NPYLR7 ag: 4
- NPYLR7 ag max-min: 3
CC1(C)CNC2(S1)C(=O)Nc1ccc(Cl)cc12 (stereo unspecified)
- NPYLR7 ag: 28
- NPYLR7 ag max-min: 36
CC(=O)N1CCN(S(=O)(=O)CCCOc2cccc3c2OC(C)(C)C3)CC1
- NPYLR7 ag: 12
- NPYLR7 ag max-min: 16
CN1C(=O)C(O)(CC(=O)c2cccc(N)c2)c2ccccc21 (stereo unspecified)
- NPYLR7 ag: 12
- NPYLR7 ag max-min: 8
CCOC(=O)c1c(C)nn(-c2ccc(C(=O)Nc3cccc(SC)c3)cc2)c1C
- NPYLR7 ag: -11
- NPYLR7 ag max-min: -18
COc1ccc(C2c3cccn3CCCN2Cc2ccsc2)cc1OC (stereo unspecified)
- NPYLR7 ag: 21
- NPYLR7 ag max-min: 23

COc1ccccc1-n1c(COc2ccccc2C)n[nH]c1=S
- NPYLR7 ag: 1
- NPYLR7 ag max-min: 0
CC(C)COC(=O)N1CCOCC1c1cc(C(=O)NCc2ccccc2)no1 (stereo unspecified)
- NPYLR7 ag: 4
- NPYLR7 ag max-min: 1
CCC(C)N(Cc1cccc(OS(=O)(=O)c2ccc(F)cc2)c1)C(=O)c1ccc([N+](=O)[O-])cc1 (stereo unspecified)
- NPYLR7 ag: 7
- NPYLR7 ag max-min: 16
O=C(O)C(CC(=O)N1CC2CCCCC2C1)Cc1ccccc1 (stereo unspecified)
- NPYLR7 ag: -6
- NPYLR7 ag max-min: -10
COc1ccc(S(=O)(=O)N2CCC(Cc3ccccc3)CC2)cc1N1CCN(C(=O)Cc2cccs2)CC1
- NPYLR7 ag: 16
- NPYLR7 ag max-min: 11
CONC(=O)c1cccc(CN(C)Cc2ccccc2)c1
- NPYLR7 ag: 3
- NPYLR7 ag max-min: 0
Cc1cc(C(=O)NNC(=O)C2CC2)n[nH]1
- NPYLR7 ag: -1
- NPYLR7 ag max-min: -3
O=C(NNS(=O)(=O)c1cccc(Cl)c1Cl)c1cc2c(s1)CCC2
- NPYLR7 ag: 1
- NPYLR7 ag max-min: -1
COc1ncc(-c2cc(Cl)c3c(c2)CC(CN)O3)c(OC)n1 (stereo unspecified)
- NPYLR7 ag: 0
- NPYLR7 ag max-min: 11
Cc1cc(C(=O)Nc2sc3c(c2-c2nc4ccccc4s2)CCN(C)C3)on1
- NPYLR7 ag: 19
- NPYLR7 ag max-min: 18
Cc1ncc(C(=O)N2CCC3(CN(C)C(=O)O3)C2)c(-c2ccccc2)n1 (stereo unspecified)
- NPYLR7 ag: 4
- NPYLR7 ag max-min: 4
O=C(NC(=S)NCc1ccc(Cl)cc1Cl)c1cccs1
- NPYLR7 ag: -4
- NPYLR7 ag max-min: -7
O=C1c2ccccc2C(=O)C1c1ccncc1
- NPYLR7 ag: 0
- NPYLR7 ag max-min: 0
CCC1(CC)NC(=S)N(Nc2ccccc2)C1=O
- NPYLR7 ag: 15
- NPYLR7 ag max-min: 11
CCCC(=O)NC(c1cccc([N+](=O)[O-])c1)c1ccc2cccnc2c1O (stereo unspecified)
- NPYLR7 ag: 0
- NPYLR7 ag max-min: -6

O=C(c1ccc(F)c(C(F)(F)F)c1)N1CCC(c2cn(Cc3cccc(F)c3)c3ccccc23)CC1
- NPYLR7 ag: 22
- NPYLR7 ag max-min: 14
CCC1CCCCN1CC(=O)N1CCCN(C)C2(CCN(C)CC2)C1 (stereo unspecified)
- NPYLR7 ag: 18
- NPYLR7 ag max-min: 12
FC(F)(F)c1cc(-c2ccco2)nc(-n2cccn2)n1
- NPYLR7 ag: 9
- NPYLR7 ag max-min: 5
CC(C(=O)Nc1nc2ccc(F)cc2s1)n1c(=O)oc2ccccc21 (stereo unspecified)
- NPYLR7 ag: 2
- NPYLR7 ag max-min: 11
Cc1nn(CC(=O)N(C)C)c(C)c1S(=O)(=O)N(C)C
- NPYLR7 ag: 1
- NPYLR7 ag max-min: 0
FC(F)(F)C1CN(Cc2nnnn2Cc2ccccc2)CCO1 (stereo unspecified)
- NPYLR7 ag: 8
- NPYLR7 ag max-min: -2
CNC(=O)[C@@H]1C[C@H](N)CN1C(=O)CCn1nc(C)c(C)c1C
- NPYLR7 ag: -3
- NPYLR7 ag max-min: -3
C=CCN(CC=C)C(=O)CSc1nnc(-c2ccc(F)cc2)n1CC=C
- NPYLR7 ag: 25
- NPYLR7 ag max-min: 15
Cc1cccc(Cn2cccc2CN(C(=O)c2ccc(Cl)c(Cl)c2)C(C)C(C)C)c1 (stereo unspecified)
- NPYLR7 ag: -8
- NPYLR7 ag max-min: 2
CCc1nc(C)nc(N2CCN(S(C)(=O)=O)CC2)c1Cc1cc(C)ccc1C
- NPYLR7 ag: -9
- NPYLR7 ag max-min: -1
Cc1nn(C)c(C)c1NC(=O)CN1CCc2[nH]c3ccccc3c2C1
- NPYLR7 ag: 8
- NPYLR7 ag max-min: 4
COc1ccc(NC(=O)CCN(Cc2ccco2)c2nc(-c3cccc(Br)c3)nc3ccccc23)cc1
- NPYLR7 ag: 11
- NPYLR7 ag max-min: 11
C#CCN1CCC(C(=O)N(CCN(C)C)CC2CCCO2)CC1 (stereo unspecified)
- NPYLR7 ag: -7
- NPYLR7 ag max-min: -9
CC(=O)NN1C(=O)CSC1=S
- NPYLR7 ag: 7
- NPYLR7 ag max-min: 4
CCc1cc2c(=O)n(Cc3ccco3)c(SCC(=O)NCc3ccco3)nc2s1
- NPYLR7 ag: -5
- NPYLR7 ag max-min: -9

The closing 3 compounds of the section before come first, to join the parts.
structure	NPYLR7 ag	NPYLR7 ag max-min
C#CCN1CCC(C(=O)N(CCN(C)C)CC2CCCO2)CC1 (stereo unspecified)	-7	-9
CC(=O)NN1C(=O)CSC1=S	7	4
CCc1cc2c(=O)n(Cc3ccco3)c(SCC(=O)NCc3ccco3)nc2s1	-5	-9
COC(=O)CCC(=O)N1CCC(C2CCN(Cc3cccc(F)c3F)CC2)C1 (stereo unspecified)	3	3
COc1cc(/C=C2\NC(=S)NC2=O)ccc1OCc1ccccc1	12	16
Cc1ccc(NC(=O)c2cccnc2)cc1OCC(F)F	-21	-23
CCc1cccc(C)c1NC(=O)CCc1c(C)nc2c3ccccc3nn2c1C	4	10
CCOC(=O)c1c(C)[nH]c(C(=O)OCC(=O)c2cc(C)n(CC3CCCO3)c2C)c1C (stereo unspecified)	14	15
O=C(C(c1ccccc1)c1ccccc1)N1CCSC1c1ccc(Cl)cc1Cl (stereo unspecified)	-11	-3
CCOC(=O)C1(CCCc2ccccc2)CCN(C(=O)c2ccc3cccc(F)c3n2)CC1	3	-4
O=C(CSc1nc2c(c(=O)n1CCc1ccccc1)SCC2)N1CCCC1	22	8
O=C(c1cc2nc(-c3cccs3)cc(C(F)(F)F)n2n1)N1CCOCC1	8	10
COc1ccc(C(F)(F)F)cc1NC(=O)c1ccc(Cn2ccnc2)cc1	25	19
CC1(C)C(=O)C2(CCCCC2)C(=O)OC1c1ccccc1F (stereo unspecified)	5	3
O=C(Nc1c(Cl)cccc1C(=O)O)c1ccccc1	3	2
COc1ccc(NC(=O)N(CC(O)c2ccccc2)CC(C)(C)C)c(Cl)c1 (stereo unspecified)	-1	-2
CC(C)CN(CC(=O)N(Cc1ccc2c(c1)OCO2)Cc1ccco1)C(=O)Nc1ccc(F)cc1F	-19	-14
COc1ccc(NC(=O)C(C)Cn2nc(C)nc2C)cc1 (stereo unspecified)	-1	6
CCc1nc(C)sc1CNC(=O)c1cc(C(C)C)nc(N)n1	0	-3
CC(C)NC(=O)CN(C)C(C)c1cc2ccccc2o1 (stereo unspecified)	7	1
N#Cc1ccc(C(=O)Nc2cccc(-c3cccc(-c4ccc(F)cc4F)n3)c2)cc1	-3	-3
CC(C)OC(=O)c1nnn(-c2nonc2N)c1CN1CCCC1	3	2
CNC(=O)c1nn(CN2CCc3sccc3C2)c(=O)c2ccccc12	3	1

An excerpt of these results, with values under each structure.
Screens in order: NPYLR7 ag	NPYLR7 ag max-min
> CCOC(=O)C1(CCCc2ccccc2)CCN(C(=O)c2ccc3cccc(F)c3n2)CC1
    3	-4
> O=C(CSc1nc2c(c(=O)n1CCc1ccccc1)SCC2)N1CCCC1
    22	8
> O=C(c1cc2nc(-c3cccs3)cc(C(F)(F)F)n2n1)N1CCOCC1
    8	10
> COc1ccc(C(F)(F)F)cc1NC(=O)c1ccc(Cn2ccnc2)cc1
    25	19

Next part:
structure	NPYLR7 ag	NPYLR7 ag max-min
COc1ccc(CCOc2nc(-c3ccccc3F)n(-c3ccc(NC(=O)c4cccc(OC)c4)cc3)n2)cc1	21	18
CCc1nc2c(OCc3ccc(C(=O)N(C)C)cc3)cccn2c1N(C)C(=O)c1ccc(C)cc1	-5	1
CCCOCCCNC(=O)c1ccc(-c2n[nH]c3c2CCCc2ccccc2-3)cc1	-4	-7
Cc1cccc(NC(=O)N(Cc2ccncc2)C2CC2)c1C	6	2
O=C(Cc1cccs1)NCc1ccc(N2CCCCC2)nc1	2	-2
CC1CCc2c(sc3nc(CN4CCOCC4)nc(N(C)C4CCCCC4)c23)C1 (stereo unspecified)	16&0	13&-1
CCOC(=O)N1CCN(c2nc(C)ncc2CC)CC1	-3	0
COc1ccc(C(=O)Nc2ccc3oc(-c4ccccc4Cl)nc3c2)cc1[N+](=O)[O-]	-1	-4
CC(C)=Cc1ccc(C#N)c(=S)[nH]1	0	6
COc1cnc(-c2ccccc2OC)c(NC(=O)c2cc(C)oc2C)n1	29	21
CC(C)c1n[nH]c(=S)n1CCNC(=O)c1cccc(N(C)C)c1	11	7
CCOc1cc(C2C(C(=O)OC3CCCC3)=C(C)NC3=C2C(=O)CC(c2ccccc2)C3)ccc1O (stereo unspecified)	3	10
CN1CC2(CCN(C(=O)c3csc(-c4cccnc4)n3)C2)OC1=O (stereo unspecified)	17	11
